# T cruzi repl – T. cruzi replication inhibition; inhibition, % (concentration not given with the values); actives 1.4% (n = 300,000); AID 1885; T. cruzi beta-gal in NIH3T3, luminescence, 90 h;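 active = mean inhibition across valid replicates above about 55%, limit read from the data; inconclusive = mean below that limit but half or more replicates reach it; inactive = mean below it, under half of replicates reach it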;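 note: signal also drops with host cell toxicity which is not excluded here; 0% = plate median of DMSO wells and 100% = zero luminescence signal; higher percent means less beta-gal luminescence so fewer parasites; stock transfer was 50 nL into about 50 µL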
# RanGTP-Impb inh – disruptors of Ran-importin-beta complex formation – biochemical, FRET, CFP-Ran, YFP-importin-beta, homogeneous, primary screen. AID 2216. cell-free CFP-Ran/YFP-importin-beta FRET ratio. actives 1.1% (n = 300,000). inhibition, % (concentration not given with the values);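 active = most replicates above 15%; inconclusive = exactly half above 15%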;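 note: 0% = DMSO wells and 100% = Ran loaded with GDP instead of GTP; wells of about 40 µL received 100 nL stock; the first replicate is given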
# Ecoli rRNA inh – inhibitors of bacterial rRNA selective over humanized ribosomes | actives 1.6% (n = 350,000) | GFP signal change (wild-type ribosome), % (no concentration beside the values) | AID 720706 | E. coli WT GFP vs humanized-ribosome RFP mutants, fluorescence, 24 h; stronger effect = lower value; DMSO median 0, no signal -100;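 active = significant combined selectivity score with lowered wild-type GFP, culture density cut under 30%, mutant RFP and density less affected; inactive = any of these conditions unmet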; note: one replicate is shown; some compounds called inactive have numbers as strong as hits
# Beta cell apopt – beta cell apoptosis inhibition | protection from apoptosis, % (no concentration beside the values) | INS-1E cytokine-induced death, ATP luminescence, 48 h; percent of positive-control rescue, neutral wells zero | actives 0.8% (n = 300,000) | AID 435005;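 active = all replicates at 75% or more, or half of them and the mean; inconclusive = half reach 75% but not the mean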;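 note: 0% = cytokine-treated negative control wells and 100% = positive control rescue; higher means more ATP so stronger rescue from cytokine killing; wells of about 40 µL received 100 nL stock; the first replicate is given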
# MLL AF4-AF9 inh – MLL-AF4/AF9 protein interaction inhibition. AlphaScreen, biotin-AF4 peptide binding to FLAG-AF9. actives 0.47% (n = 350,000). inhibition, % at 10 µM;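 active = every replicate reaching a set inhibition limit, whatever the replicate mean, cut at about 25% in these data; inconclusive = mean inhibition reaches that limit but some replicates miss it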;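 note: 0% = plate neutral control median and 100% = total signal loss; the record names both 10 and 1 µM as test concentration; the first replicate is given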
# Target sequence (P42568 whole entry, looked up): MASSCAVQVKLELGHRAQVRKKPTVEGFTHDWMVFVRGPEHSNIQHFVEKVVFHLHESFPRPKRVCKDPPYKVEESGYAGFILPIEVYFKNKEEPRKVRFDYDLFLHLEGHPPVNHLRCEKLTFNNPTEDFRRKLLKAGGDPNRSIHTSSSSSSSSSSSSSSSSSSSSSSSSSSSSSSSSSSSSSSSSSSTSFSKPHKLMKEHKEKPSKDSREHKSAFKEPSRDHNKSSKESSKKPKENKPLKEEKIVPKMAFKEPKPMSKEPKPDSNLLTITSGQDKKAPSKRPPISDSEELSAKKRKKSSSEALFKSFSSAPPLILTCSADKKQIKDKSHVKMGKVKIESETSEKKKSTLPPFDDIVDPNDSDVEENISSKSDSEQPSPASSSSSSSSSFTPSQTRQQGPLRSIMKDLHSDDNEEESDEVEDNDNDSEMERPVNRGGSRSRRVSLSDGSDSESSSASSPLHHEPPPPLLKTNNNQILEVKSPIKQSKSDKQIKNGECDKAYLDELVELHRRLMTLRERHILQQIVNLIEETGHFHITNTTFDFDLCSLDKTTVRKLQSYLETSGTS
# Vif TR-FRET – HIV-1 Vif–A3G interaction blockers – biochemical, TR-FRET, GST-Vif 1-94, biotin-A3G peptide, dose response retest, primary screen (AID 1117319); TR-FRET GST-Vif / biotin-A3G peptide binding; higher % means a stronger effect; test concentration not given here; strong numbers were not always called active; inhibition, %, or IC50 in µM where a hit was titrated; actives 0.57% (n = 260,000);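 active = above the screen mean plus three standard deviations and confirmed in dose response; inconclusive = results disagree or hit not tested in dose response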;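 note: Vif residues 1-94 fused to GST binding biotinylated APOBEC3G peptide 110-148; 0% = full assay without inhibitor and 100% = GST in place of GST-Vif; retest series ran down from 100 µM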
# Calb FLC – C. albicans growth modulation with fluconazole | C. albicans CaCi-2 (fluconazole-resistant clinical isolate) + fluconazole, Alamar Blue growth, 48 h | growth inhibition, % (test concentration not listed) | actives 0.57% (n = 300,000);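 active = most replicates above 75%; inconclusive = exactly half above 75%; inactive = most below 75%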;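 note: all wells also contain fluconazole at 8 µg/ml as a sub-toxic cotreatment; 0% = median of DMSO wells and 100% = median of geldanamycin control wells; wells of about 8 µL received 7.5 nL stock; the first replicate is given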
# A1 inh – inhibitors of the anti-apoptotic protein A1, read as caspase activation. AID 2462. MEF A1-2A-BIM cells, Caspase-Glo 3/7 luminescence, 3 h; percent of clofoctol response, vehicle zero. caspase activation, % (no concentration beside the values). actives 0.066% (n = 330,000);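 active = over half of replicate activation scores above 10%, or exactly half above 10 with the replicate mean above 10; inconclusive = replicate mean below 10 yet half the replicates above 10; inactive = over half of replicates below 10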;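 note: wells of about 30 µL received 50 nL stock; many hits fall short of the cut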
# Ecoli rRNA inh OD600 – recorded beside Ecoli rRNA inh, whose call it bears; OD600 change, %; measured here: OD600 growth;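 optical density of the mix in the first replicate; 0 = DMSO median and -100 = no signal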
# Ecoli rRNA inh RFP – recorded beside Ecoli rRNA inh, whose call it bears; RFP signal change, %; measured here: RFP humanized mutant strains;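 first replicate; 0 = DMSO median and -100 = no signal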
# Starred values were filed as active, the others as inactive; ? = inconclusive; / = no result given; & = joins results of further samples. An excerpt. The share of hits here may be higher or lower than overall.
SMILES,T cruzi repl,RanGTP-Impb inh,Ecoli rRNA inh,Ecoli rRNA inh OD600,Ecoli rRNA inh RFP,Beta cell apopt,MLL AF4-AF9 inh,Vif TR-FRET,Calb FLC,A1 inh
CC(c1ccc(Br)cc1)N1CC23C=CC(O2)C(C(=O)O)C3C1=O (stereo not given),-6,-1.2,8,9,-2.0,-5,-5.1,16%,-3,0.2
Cc1cc(NC(=O)COC(=O)CSCc2ccc(Cl)c(Cl)c2)no1,-2,3.9,-22*,-3.0*,4.5*,-2,6.6,0%,-3,0.4
Cc1cc(C)c(S(=O)(=O)c2cccc(Br)c2C)c(Cl)n1,13,-2.1,14,14,2.3,-11,-0.7,-5%,5,1.4
C=CCNC(=O)c1ccccc1NS(=O)(=O)c1ccc(SC)cc1,2,4.9,/,/,/,2,/,6%,37,-0.2
Nc1ccc(-n2nnnc2-c2ccco2)cc1,-11,4.0,/,/,/,-6,/,?,7,0.0
CCc1cc(C(=O)N2CCCC(C(=O)c3ccc(C(F)(F)F)cc3)C2)n(C)n1 (stereo not given),3,?,-7,-13,0.8,/,-1.5,/,1,/
CCOc1ccc2oc(C(=O)N3CCN(c4ccccn4)CC3)c(C)c2c1,1,1.0,-12,-24,-2.1,2,-5.0,10%,4,-0.2
CCc1ccc(/C=C(/C#N)C(N)=S)s1,2,-2.0,17,15,-0.2,-10,0.3,0%,6,0.9
Cc1ccc(NC(=O)CS(=O)Cc2nc(-c3ccc(C)cc3)oc2C)cc1 (stereo not given),5,-2.4,11,17,4.4,-6,7.7,-2%,2,0.0
CC1CN(c2nc3ccccn3c(=O)c2C=O)CC(C)O1 (stereo not given),-10,5.4,16,-2,3.7,2,-0.2,/,-1,1.2
COc1cccc(Cn2cnc3c(NS(=O)(=O)c4cc(Cl)ccc4Cl)c(C)c(C)cc32)c1,13,1.0,/,/,/,0,/,-1%,16,-0.1
NCCN1C(=O)S/C(=C\c2ccc3c(c2)OCO3)C1=O,-5,-0.1,5,6,-1.1,5,-7.5,-7%,/,0.4
O=C(CN1C(=O)c2ccccc2C1=O)Nc1cccc(O)c1,-29,3.6,15,5,0.4,-1,-1.8,/,24,-0.7
O=C(Cn1cnc2nc3n(c2c1=O)CCC3)NCc1ccccc1,-9,-1.8,10,15,2.9,-6,-0.6,-4%,25,0.0
COc1cccc2c1OC1(C)CC2NC(=O)N1 (stereo not given),-6,-2.4,/,/,/,-4,/,11%,-11,0.8
CCN(CC)C(=S)SC1CCCCN(C(=O)c2ccc(F)cc2)C1=O (stereo not given),-3,0.4,-35,-31,-5.9,1,-1.6,-4%,18,0.0
CCOC(=O)Cc1csc(NC(=O)COc2ccccc2OCC)n1,-11,1.9,/,/,/,-9,/,-2%,27,-1.5
CCOc1ccc(S(=O)(=O)NCCC(=O)NCc2ccc(OC)c(OC)c2)cc1,/,/,/,/,/,-18,1.3,-1%,/,-0.8
Cc1ccc2cc(C(c3nnnn3C3CCCC3)N3CCOCC3)c(=O)[nH]c2c1C (stereo not given),15,-2.6,-2,6,-0.1,0,/,0%,-6,1.0
COc1ccccc1N1CCN(CCCC(=O)c2ccc(F)cc2)CC1,4,3.2,/,/,/,0,1.0,-3%,/,-0.3
Cc1[nH]c2ccccc2c1CC(=O)O,-5,-1.7,/,/,/,-13,/,2%,0,0.2
Cc1cc(C(=O)OCC(=O)Nc2ccccc2C)c(C)o1,/,/,11,10,-2.0,-1,0.1,0%,/,-0.1
CC(=O)Nc1nc2ccccc2n1Cc1ccc(C)cc1,80*,-2.7,-52,-78,-16,14,0.1,8%,8,-1.1
COC(=O)c1ccc(C)c(-n2c(C)cc(C=O)c2C)c1,-16,-3.0,/,/,/,2,/,3%,-18,0.4
Cc1cc(C)c(NC(=O)CN(C2CCCCC2)C2CCCCC2)c(C)c1,18,4.4,9,8,2.1,3,-12,-2%,13,1.6
Cc1[nH]n(-c2ccccc2)c(=O)c1C(c1ccccc1C(=O)O)c1c(C)[nH]n(-c2ccccc2)c1=O,-7,?,/,/,/,-8,/,4%,9,0.4
CCC1=NN(C(=O)COc2ccccc2C)C(O)(c2ccncc2)C1 (stereo not given),-10,?,11,11,-0.2,-6,-1.3,/,27,-0.6
O=C(c1ccc([N+](=O)[O-])s1)N1CCN(c2ccccc2)CC1,69*,1.2,8,3,-0.3,43,4.0,15%,-9,0.1
Cc1c(NC(=O)CSCc2ccco2)c(=O)n(-c2ccccc2)n1C,-7,-4.9,/,/,/,-1,1.0,1%,-2,2.6
CCn1c(C)nc2cc(S(=O)(=O)N3CCCCC3)ccc21,-1,2.0,/,/,/,20,/,?,6,-0.3
CNC(=S)N(Cc1ccc(OC)cc1)C1CC(=O)N(c2ccc(C(=O)OC)cc2)C1=O (stereo not given),-19,-0.6,-35,-44,-12,1,2.0,4%,-3,-0.6
Cc1ccc(-c2cc(C(=O)NCc3cnn(C)c3)c3cc(Br)ccc3n2)cc1,-2,-1.9,/,/,/,30,/,-125%,2,1.6
CCOc1ccc(NCC(=O)Nc2ccc(Cl)cc2C)cc1,41,3.1,/,/,/,1,/,?,-35,-0.3
Cc1nc(N2CCOCC2)c(C#N)c2c1COC(C)(C)C2,-7,0.8,/,/,/,-17,/,11%,-7,0.9
Cc1cc(F)ccc1NCc1cc2c(cc1[N+](=O)[O-])OCO2,-13,5.1,/,/,/,-3,/,22%,9,-0.1
O=C(Nc1ccc(Br)cc1)C1Cc2ccccc2O/C1=N\O (stereo not given),-3,-1.4,20,14,2.1,0,7.5,-9%,1,0.2
COC(c1ccccc1)c1nnc(CCC(=O)NCCCc2ccccc2)o1 (stereo not given),17,3.7,10,5,2.3,/,1.3,/,8,-1.1
C=CC(=O)NCc1ccc(-c2csnn2)cc1,-28,2.1,-2,4,-3.0,0,2.1,/,0,0.8
CN1CCC(OC(=O)COc2ccc(Br)cc2)CC1,-17,2.0,12,12,-2.9,3,-14,-1%,2,-0.5
CC(=O)Nc1ccc(Oc2nc(C(F)(F)F)nc3ccccc23)cc1,-18,-1.4,35,16,4.4,-1,-1.7,-7%,10,-0.4
N#CC1=C(N)NC(SCc2ccc(Cl)cc2)=C(C#N)C12CCCCC2,51,3.0,/,/,/,42,/,6%,-1,0.0
O=C(COc1cccc2c1CCN(Cc1ccc(Br)cc1)C2=O)N1CCOCC1,14,1.2,-28*,-12*,3.5*,-1,2.6,8%,-6,0.6
CCOC(=O)N1CCN(C(=O)COc2ccc3c(c2)C(=O)CC(C)(C)O3)CC1,10,-0.7,9,20,8.5,-9,-9.5,-5%,8,-0.6
COCCCNC(=O)c1ccc(CS(=O)(=O)Cc2cccc(C)c2)o1,1,1.8,/,/,/,-4,/,1%,-13,-0.6
Cc1ccc(O)c(-n2nc3ccccc3n2)c1,-1,-1.0,8,6,-1.8,/,0.2,28%,2,-0.3
Fc1ccc(-c2cc(C(F)(F)F)n3ncnc3n2)cc1,-5,3.2,13,7,-5.5,7,-4.4,1%,26,-0.5
CN1CCN(NC(=O)c2ccc(Cl)c([N+](=O)[O-])c2)CC1,4,-0.3,/,/,/,-7,/,6%,-2,2.9
COc1ccc(NC(=S)N(Cc2ccccn2)Cc2ccccc2Cl)cc1,10,2.7,2,2,1.2,-4,-2.9,-1%,4,1.1
Cc1ccc(/C=C2\SC(=S)N(CCC(=O)NNC(=O)c3ccccc3O)C2=O)cc1,-6,-9.6,6,11,-0.6,/,0.3,/,-7,0.3
COc1ccc(CCNC(=O)/C(C#N)=C/c2cccc(OCc3ccccc3)c2)cc1OC,-28,3.5,/,/,/,-2,/,15%,30,-3.2
# Following part:
SMILES,T cruzi repl,RanGTP-Impb inh,Ecoli rRNA inh,Ecoli rRNA inh OD600,Ecoli rRNA inh RFP,Beta cell apopt,MLL AF4-AF9 inh,Vif TR-FRET,Calb FLC,A1 inh
C[C@H](CO)N1C[C@H](C)[C@@H](CN(C)C(=O)Nc2ccc(C(F)(F)F)cc2)Oc2ccc(NC(=O)C3CCCCC3)cc2C1=O,/,/,-1&0,10&4,-0.9&7.7,-1,-0.6&2.4,1%,/,-0.2
NS(=O)(=O)c1ccc(CCNC(=O)CSc2nc3ccsc3c(=O)n2CCCCC(=O)O)cc1,4,4.5,17,18,1.6,-2,-2.2,5%,-1,-1.0
Cc1c(Cl)c([N+](=O)[O-])nn1CCCC(=O)O,-6,1.9,9,3,-0.8,-3,-1.8,12%,0,1.1
O=C(/C=C/c1ccc(Cl)cc1)NCCSc1ccccc1,14,1.7,/,/,/,1,/,5%,-2,0.0
NC(=O)c1ccsc1NC(=O)c1ccco1,-11,8.8,3,-2,-1.6,-4,-6.4,10%,6,-2.8
Cc1ccc2nc(SCC(=O)c3ccc(O)cc3O)[nH]c2c1,-6,3.4,-23*,-5.8*,0.5*,-4,2.7,6%,3,-0.9
O=C(NCc1ccc(F)cc1)c1cnc(Cl)c(Cl)c1,17,-0.8,1,1,0.6,4,?,/,-19,-0.2
C/C(=N\Nc1ccc(C(=O)O)cc1)c1ccc(Br)cc1,-5,4.9,-5,4,6.7,-13,-3.3,/,3,-2.0
CCCN(CC(=O)Nc1ccccc1C)C(=O)C1CC(=O)N(c2ccc(CC)cc2)C1 (stereo not given),/,/,/,/,/,0,-0.7,-6%,/,2.2
CCOc1ccc2nc(SCC(=O)N(CC(C)C)c3c(N)n(Cc4ccccc4)c(=O)[nH]c3=O)[nH]c2c1,-1,-1.9,-3,0,0.7,-9,-6.2,/,0,0.8
CCOc1ccccc1NC(=O)Cn1c(=O)c2ccccc2n(CC)c1=O,-1,6.4,/,/,/,-1,/,-4%,9,0.8
COc1cc(NC(=O)CCCn2c(=S)[nH]c3ccccc3c2=O)cc(OC)c1OC,-1,-1.5,-6,-8,1.1,7,0.3,?,-6,0.4
CC(OC(=O)c1ccc(Cl)nc1)C(=O)Nc1ccc(S(=O)(=O)N2CCCC2)cc1 (stereo not given),2,-1.2,-3,-5,-0.1,-6,-0.9,/,0,0.2
C=CCN1C(=O)/C(=c2\sc3nc(=O)c(Cc4ccccc4)nn3c2=O)c2ccccc21,-28,0.3,8,6,0.3,-5,3.2,/,2,0.1
COC(=O)Nc1ccc(SCC(=O)c2ccc(Cl)cc2)cc1,3,-2.1,-37,-46,-2.6,-2,-0.7,-21%,-3,0.3
CN1CCC(Oc2ccccc2Sc2ccccc2)CC1,27,3.4,/,/,/,-5,/,-3%,8,-0.2
Cc1ccc(S(=O)(=O)N2CCCC2)cc1S(=O)(=O)N1CCCC1,13,-0.6,/,/,/,/,/,-1%,4,-0.2
C[C@@H]1CN([C@@H](C)CO)C(=O)c2cccc(NS(C)(=O)=O)c2O[C@H]1CN(C)Cc1ccc(Oc2ccccc2)cc1,/,/,1&-6,-7&-3,0.4&1.9,-1,2.2&3.2,/,/,-0.3
CN(C(=O)CSc1ncccn1)C1CCS(=O)(=O)C1 (stereo not given),-4,2.9,24,31,4.0,-4,-4.7,/,-7,1.0
CC(=O)NC1CC2CCCC(C1)N2CC(=O)N1CCCc2ccccc21 (stereo not given),-8,1.3,/,/,/,-5,/,26%,-2,0.0

# From PubChem BioAssay
